AID504770 = E. coli YBA685 growth inhibition, screen for V. cholerae RctB inhibitors. E. coli YBA685 rctB-dependent plasmid, OD600 growth, 3 h; active compounds read low. z-score (test concentration not listed). 130,000 compounds, 0.27% hits. AID 504770;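 active = z-score under -2 on both plates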;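 also: wells of about 30 µL received 100 nL stock; score is relative to mean and SD of the test wells; the first replicate is given; strong numbers were not always called active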
Ba CapD inh = blocks the Bacillus anthracis CapD enzyme; z-score (test concentration not listed); purified CapD enzyme, fluorescence intensity read-out; active compounds read low; some hits fall short of the stated cut; 140,000 compounds, 0.23% hits; AID 492967;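 active = z-score under -4 in either of two replicates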;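 also: stock transfer was 100 nL into about 40 µL; score is relative to mean and spread of the plate; one replicate is shown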
Active calls of the source: *; / = not tested or not shown.

Every second line gives: Ba CapD inh	AID504770
O=C(NCC1CCNCC1)c1ccc(/C=N/O)nc1
 : 0.11	1.35
CN(CCOC(=O)CN1C(=O)c2ccccc2C1=O)C1=NS(=O)(=O)c2ccccc21
 : -0.14	/
CCC(=O)N1N=C(c2c(-c3ccccc3)c3cc(Cl)ccc3[nH]c2=O)CC1c1ccc(N(C)C)cc1 (stereo not given)
 : -0.265	/
CCOCC1OC2OC(C)(C)OC2C2OC(C)(C)OC12 (stereo not given)
 : 0.59	/
CC(C)(C)NS(=O)(=O)Cc1ccccc1Cl
 : 0.31	0.4
COCCNC(=O)N1c2ccccc2Sc2ccccc21
 : /	0.25
Cc1ccccc1NC(=O)CCc1c(C)nc2cc(-c3ccccc3)nn2c1C
 : 30.4	-0.4
O=C(OCCN1CCNC1=S)N1CCc2c([nH]c3ccccc23)C1
 : 0.23	/
Cc1cccc(N2COc3cc(C)c(Cl)c(C)c3C2)c1
 : 0.225	-0.65
O=S(=O)(c1ccc(Cc2ccc(S(=O)(=O)N3CCC4(CC3)OCCO4)cc2)cc1)N1CCC2(CC1)OCCO2
 : 0.335	-0.85
Cc1cc(C(=O)Oc2ccc3c(c2)OCO3)c(C)s1
 : /	3.6
NC(=O)COC(=O)c1c2c(nc3ccccc13)CCC2
 : 25.7	0.25
Cc1c(C(=O)C(C#N)c2nc3ccccc3[nH]2)oc2c(Cl)cccc12 (stereo not given)
 : /	-0.45
CS(=O)(=O)c1ccc2nc(NC(=O)COc3ccc(Oc4ccccc4)cc3)sc2c1
 : -0.39	/
CCCCN1C(=O)CC(NNCc2ccccc2)C1=O (stereo not given)
 : /	0.4
O=C(CN1C(=O)C2CC=CCC2C1=O)NC1=NCCS1 (stereo not given)
 : /	0.35
Nc1cc(Cl)ccc1Cl
 : /	-0.6
CN(C)/C=C(/c1ncc(C(F)(F)F)cc1Cl)S(=O)(=O)c1ccccc1
 : 0.045	/
OCCN(Cc1ccccc1)c1ncnc2c1oc1ccccc12
 : /	-0.25
COCOc1ccc(C(=O)CC(=O)c2ccccc2O)cc1
 : 0.98	0.3
CC1Cc2nc(SCC(N)=O)n(C)c(=O)c2S1 (stereo not given)
 : -0.775	0.75
O=C(Cc1ccccc1)NCc1ccc2c(c1)OCO2
 : /	0.3
CCOC(=O)Cc1csc(NC(=O)c2cccs2)n1
 : -0.245	1.25
COC(=O)c1ccc(C(=O)Nc2ccc3nc(NC(C)=O)sc3c2)cc1
 : 0.67	/
COc1ccc(CCN2CN=C(NS(=O)(=O)c3ccc(C)cc3)NC2)cc1OC
 : /	-0.85
CCc1ccc(NS(=O)(=O)c2ccc3[nH]cc(C(=O)N4CCCC4)c(=O)c3c2)cc1
 : -5.94*	-0.05
CC1(C)OC2OC(CO)C(O)C(O)C2O1 (stereo not given)
 : -0.54	-0.1
CC(=C1C(=O)c2ccccc2C1=O)N1CCC(C(N)=O)CC1
 : -0.325	0.35
CCOC(=O)C1CCCN(CC(O)COc2ccccc2Br)C1 (stereo not given)
 : 0.03	0.15
Nc1ccccc1C(=O)Nc1ccc(Cl)cc1
 : 126	/
O=C(O)[C@H](Cc1ccc(O)cc1)N1C(=O)c2ccccc2C1=O
 : -0.37	-0.25
Cc1ccc(/C=C2\S/C(=N\n3cnnc3)N(c3ccccc3)C2=O)cc1
 : -0.97	/
CCC1CN(C(=O)CCC(=O)NCc2ccc(F)cc2)c2cc(Cl)ccc2O1 (stereo not given)
 : /	-0.2
CCOC(=O)c1ccc(NC(=O)CSc2nnc(NC(=O)c3cccc([N+](=O)[O-])c3)s2)cc1
 : -0.405	/
Cc1cc(OCC(=O)N(C2CC2)C2CCS(=O)(=O)C2)ccc1Cl (stereo not given)
 : /	0.45
O=C(NCC(=O)N1CCN(c2ccccc2)CC1)c1ccccc1F
 : 0.865	/
C(=C/c1ccnc2nc(SC/C=C/c3ccccc3)nn12)/c1ccccc1
 : 2.98	/
CCc1ccc(C2(c3ccc(CC)cc3)SC3(SC(C(C)=O)=NN3c3cccc(Cl)c3C)c3ccccc32)cc1 (stereo not given)
 : -0.24	/
Cc1ccc(SCC(O)CN2CCN(c3ccc(F)cc3)CC2)cc1 (stereo not given)
 : -0.195	/
OC(CON=C1c2ccccc2-c2ccccc21)Cn1nnc2ccccc21 (stereo not given)
 : /	0.05
N#C/C(=N\Nc1ccc(F)cc1)C(=O)NCC1CCCO1 (stereo not given)
 : -2.69	-1.5
O=S(=O)(NCc1ccc(-c2cccs2)cc1)c1ccc(N2CCOCC2)nc1
 : 7.06	1.55
CS(=O)(=O)N1CCc2cc(S(=O)(=O)Nc3ccc4c(c3)COC4=O)ccc21
 : 0.44	0.45
Cc1cc(C)c(C(=O)COC(=O)c2ccc(O)cc2)c(C)c1
 : /	0.45
CNC(=O)CSc1nnc2c(C)cc3ccc(OC)cc3n12
 : /	0.2
O=C1CC23CCCCCCC2(C1)CC(=O)C3 (stereo not given)
 : 0.2	/
O=C(Nc1ccc2c(c1)C(=O)NC2=O)c1ccccc1
 : /	-0.9
COc1ccc(NC(=O)C(C)n2cccc2)cc1 (stereo not given)
 : 22.8	0.15
O=C(N/N=C/c1cc2c(cc1Cl)OCO2)c1cc(C2CC2)nc2ccccc12
 : 1.85	/
CC1(C)CCc2cc(S(=O)(=O)NCCN3CCCC3)ccc2O1
 : -0.28	-0.65
C/C=C(\C)C(=O)Nc1nncs1
 : -0.17	1.35
Cc1ccc(C)c2nc(SCC(=O)NC3CCCCC3)c(C#N)cc12
 : /	-0.1
CSc1cccc(NC(=O)Cn2cnc(S(=O)(=O)N3CCc4ccccc43)c2)c1
 : 0.485	0.15
O=C(NCCNc1cccc2ccccc12)c1ccco1
 : /	-0.65
Cc1cc(C#N)c(C)n1-c1ccc(Cl)cc1C(=O)c1ccccc1Cl
 : /	-0.05
COc1ccc(/C=C/C(=O)Nc2nc3ccccc3s2)cc1
 : 1.25	-1.35
CC1Cc2ccccc2N1Cc1nc2ccccc2c(=O)[nH]1 (stereo not given)
 : /	-0.05
CCCNc1nc(Cl)nc(NCCC)n1
 : 0.435	-0.6
O=C(CSc1nc(=O)n2ccccc2n1)NC1CCCC1
 : /	-0.3
O=C(c1ccc(F)cc1)c1ccc(N2CCCCC2)cc1
 : -0.04	-0.65

Later entries:
Every second line gives: Ba CapD inh	AID504770
OCCCc1nc2ccc(Cc3ccc4nc(CCCO)[nH]c4c3)cc2[nH]1
 : -0.06	0.45
Cc1cc(CSC(=N)N)c(C)cc1CSC(=N)N
 : 0.61	0.45
c1csc(Cn2c(-c3cccs3)nc3ccccc32)c1
 : 29.9	0.25
O=C(COC(=O)c1ccco1)NCC1CCCO1 (stereo not given)
 : /	0
O=C(NCC1CCCO1)/C(=C\C=C/c1ccccc1)NC(=O)c1ccccc1 (stereo not given)
 : -2.68	-0.05
COCc1cc(C(C)(C)C)nc(N)n1
 : 0.915	-0.55
CCn1c(=Nc2ccc(C)cc2)ccc2cc(C)ccc21
 : 0.01	-0.05
O=C(CCn1c(=O)oc2ccccc21)NCCN1CCCCC1
 : 0.375	-0.55
Cc1ccc(N(C)C(=O)n2cnc3ccccc32)cc1
 : 0.225	-0.2
COc1ccccc1NC(=O)Nc1ccc(N2CCOCC2)cc1
 : /	-0.7
CCOC(=O)c1cnn(-c2cc(Cl)cc(Cl)c2)c1C(C)C
 : -0.66	-0.85
Nc1cc(Nc2ccc(Br)cc2)nc(N)n1
 : -0.105	-1.3
FC(F)(F)c1ccnc(=S)[nH]1
 : 0.7	-1.3
O=c1[nH][nH]c(=S)n1-c1ccc2c(c1)OCCO2
 : -0.46	1
O=C(O)c1ccc(N=Cc2ccc(-c3ccc(Cl)cc3)o2)cc1
 : 24	1.05
Cc1[nH]nc2c1C(c1ccc(OC(=O)c3c(-c4c(Cl)cccc4Cl)noc3C)cc1)C(C#N)=C(N)O2 (stereo not given)
 : -1.34	/
C=CCC(CC=C)(NC(=O)c1ccccc1)c1ccccc1
 : 0.14	0.4
Nc1ccc(SCC(=O)O)c(C(=O)O)c1
 : 20.6	0.55
COc1ccccc1NC(=O)Cn1cnc2sc(C(=O)Nc3ccccc3C(F)(F)F)c(C)c2c1=O
 : 0.705	/
CCOc1ccc(N2CC(O)(c3cccc([N+](=O)[O-])c3)[N+]3=C2SCCC3)cc1 (stereo not given)
 : 0.35	/
O=C1C=CC(=O)N1Cc1ccc2c(c1)OCO2
 : -0.925	-1.85
CCc1ccc(S(=O)(=O)N2CCN(S(=O)(=O)c3ccc(CC)cc3)C(C)C2)cc1 (stereo not given)
 : -0.12	-0.05
CC1=NN(c2ccccc2)C(=O)C1C(c1ccccc1)C(C#N)C#N (stereo not given)
 : 5.42	/
CCOc1ccc2nc(SCc3c(C(=O)OC)nnn3-c3nonc3N)sc2c1
 : -0.335	/
Cn1c(C(C#N)C(=O)c2n[nH]c(=O)c3ccccc23)nc2ccccc21 (stereo not given)
 : /	0.05
Cn1c(=O)cc(SCC(=O)Nc2ccccn2)c2ccccc21
 : 0.835	-0.4
C#CCn1c(=NC(=O)C(C)C)sc2cc(Br)ccc21
 : /	0.1
Cc1nnc(N(C)C(=O)c2ccccn2)s1
 : /	-0.55
CCCCNc1nc(SCC(=O)c2ccc(O)c(O)c2)nc2ccccc12
 : -0.58	/
COc1ccc(C2CC(=O)CC(=O)C2)cc1
 : 0.29	-0.3

Given with each value named: 3 of the compounds above.
> Cn1c(C(C#N)C(=O)c2n[nH]c(=O)c3ccccc23)nc2ccccc21 (stereo not given)
  Ba CapD inh = /; AID504770 = 0.05

> CCC1CN(C(=O)CCC(=O)NCc2ccc(F)cc2)c2cc(Cl)ccc2O1 (stereo not given)
  Ba CapD inh = /; AID504770 = -0.2

> COCc1cc(C(C)(C)C)nc(N)n1
  Ba CapD inh = 0.915; AID504770 = -0.55

Structural class, the compounds so far with a tert-butyl group
Every second line gives: Ba CapD inh	AID504770
CC(C)(C)NS(=O)(=O)Cc1ccccc1Cl
 : 0.31	0.4
COCc1cc(C(C)(C)C)nc(N)n1
 : 0.915	-0.55

(more compounds)
Every second line gives: Ba CapD inh	AID504770
Cn1c(SCC(=O)NC2C3CC4CC(C3)CC2C4)nnc1-c1cccnc1 (stereo not given)
 : /	1.6
CC1=C/C(=N/NC(=O)c2c[nH]c3ccccc23)CC(C)(C)C1
 : /	-1.4
C=CCNc1nc(-c2cccs2)c(CC(=O)O)s1
 : 0.82	-0.7
CS(=O)(=O)c1ccc2nc(NC(=O)CCSc3ccccc3)sc2c1
 : -0.01	0.05
COc1cc(CC/C(C)=N/O)ccc1O
 : 0.49	/
CCOC(=O)C1=C(C)N=c2s/c(=C\c3c[nH]c4ccccc34)c(=O)n2C1c1cc(Br)c(OC)cc1OC (stereo not given)
 : -0.88	/
OC[C@H]1O[C@H](O)[C@H](NNc2ccccc2)[C@@H](O)[C@@H]1O
 : -1.12	/
Fc1ccc2[nH]c3c(c2c1)CN(Cc1ccc(Cl)cc1Cl)CC3
 : -0.145	-0.8
COC(CNC(=O)c1csc2c1CCCCC2)OC
 : -0.14	0.75
Cc1ccc(C(=O)N(CC#N)CC#N)cc1
 : /	-0.7
CCC(=O)Nc1ccc(-c2nc3ccc(NC(=O)CC)cc3[nH]2)cc1
 : /	-0.95
CCOC(=O)C1=C(C)Nc2ccccc2N=C1NC(=O)Cn1c(=O)oc2ccccc21
 : /	-0.3
O=C(NC(=O)c1ccccc1)Oc1ccc(F)cc1
 : -0.19	-0.7
CCCC(=O)N1CC(=O)Nc2ccc(C)cc2C1c1ccccc1 (stereo not given)
 : -0.45	/
CC1CN(C2(n3nnc4ccccc43)CCC(C(C)(C)C)CC2)CC(C)O1 (stereo not given)
 : -0.21	/
O=c1/c(=C\c2ccncc2)sc2nc3ccccc3n12
 : 0.135	-0.4
CCN(CC)CCOc1cc2c(cc1Cl)-c1cc(Cl)c(OCCN(CC)CC)cc1C2=NNC(N)=O
 : -0.495	/
O=C(CCNC(=O)c1ccco1)Nc1ccccc1
 : /	0
OCC(S)CS (stereo not given)
 : -0.18	/
COc1ccc(-c2nnco2)cc1
 : -0.69	1.2
Cc1ccc(S(=O)(=O)NC(=O)N(Cc2ccc(S(C)(=O)=O)cc2)Cc2ccccn2)cc1
 : 0.125	/
CN1CCN(c2ccc(NC(=O)COc3cccc4ccccc34)cc2)CC1
 : -0.785	-0.5
COc1ccccc1N(C)C(=O)CCS(=O)(=O)c1ccc2c(c1)n(C)c(=O)c(=O)n2C
 : -0.515	-0.25
Cc1ccc2c(Cl)cc(Cl)c(OCC(=O)N3CCCC3)c2n1
 : 3.92	0.8
CCn1cc(C(=O)NCC(OC)OC)c(=O)c2cc(S(=O)(=O)N3CC(C)CC(C)C3)ccc21 (stereo not given)
 : -0.865	-0.15
O=C(Nc1ccc(Cl)cc1)/C(=C/c1ccc2c(c1)OCO2)NC(=O)c1ccc(Br)cc1
 : 0.83	/
O=S(=O)(c1ccc(Cl)cc1)N1CCC(c2nnc(-c3ccccc3)o2)CC1
 : 0.205	/
CC(C)CN1C(=O)C(=Nc2cccnc2)c2ccccc21
 : 0.32	-0.5
O=C(Nc1noc2c1COc1ccccc1-2)N1CCN(c2ccccc2F)CC1
 : 0.18	2.05
CCN(CC)Cc1cc(NC(=O)OCCc2ccccc2OC)ccc1O
 : -0.415	/
Cn1c(C(=O)O)nc2ccccc21
 : /	-2.35
O=C(Oc1cccc2c1CCC2=O)c1ccccc1
 : -0.145	-0.5
Cn1c(=O)sn(-c2cccc3ccccc23)c1=O
 : 1.09	/

Assay outcomes from PubChem.

The list is partial; count on the stated rates, not on these rows.
